# Screening results from PubChem.
# STEP inh: STEP phosphatase inhibitors, primary screen, biochemical, fluorescence intensity, uHTS | actives 0.25% (n = 360,000) | inhibition, % at 20 µM | recombinant STEP, OMFP fluorogenic substrate | AID 588621, 2011 | Tyrosine-protein phosphatase non-receptor type 5 (Homo sapiens), P54829;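 active = inhibition at 20 µM, scaled per plate between control wells, above about 37%, limit read from the data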;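 note: 0% = DMSO with enzyme and substrate and 100% = substrate only without enzyme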
#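 material = STEP tyrosine phosphatase | reagent = fluorogenic phosphatase substrate OMFP at 25 µM final | doses = single compound dose of 20 µM, 1% DMSO final | schedule = 20 min reaction, room temperature, in the dark | measured by = fluorescence, 480/540 nm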
# Neddylation inh: inhibitors of cullin neddylation, primary screen, biochemical, TR-FRET, uHTS, NAE and Ubc12; calls only at 25 µM; AID 651699, 2012; actives 0.58% (n = 360,000); NEDD8-conjugating enzyme Ubc12 (Homo sapiens) + NEDD8-activating enzyme E1 regulatory …; in the data active = inhibition above about 36%
# LMPTP inh: LMPTP phosphatase inhibitors, primary screen, biochemical, fluorescence intensity, uHTS | Low molecular weight phosphotyrosine protein phosphatase (Homo sapiens), P24666 | inhibition, % at 20 µM | recombinant LMPTP-A, OMFP fluorogenic substrate | actives 0.22% (n = 360,000);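 active = compounds that cut the enzyme signal by at least half of the control window in the single-dose screen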;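 note: plate controls were DMSO wells with enzyme plus substrate for no effect and substrate without enzyme for full effect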
# Target sequence (P24666 whole entry, looked up): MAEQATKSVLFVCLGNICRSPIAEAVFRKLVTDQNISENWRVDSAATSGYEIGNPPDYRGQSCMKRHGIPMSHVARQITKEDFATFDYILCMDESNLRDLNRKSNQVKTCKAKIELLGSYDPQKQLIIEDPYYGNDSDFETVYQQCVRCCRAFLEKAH
#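 Assay system: LMPTP-A, protein tyrosine phosphatase of low molecular weight / Medium: pH 6.0 Bis-Tris buffer with DTT and Triton X-100 / Schedule: 50 min enzyme reaction at room temperature, protected from light / Measured by: endpoint fluorescence intensity from OMFP dephosphorylation / Read-out basis: % inhibition relative to no-enzyme and uninhibited control wells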
# SUMO1 PPI mod: modulators of SUMO1 protein-protein interactions, primary screen, biochemical, uHTS; actives 0.33% (n = 360,000); SUMO1 binding to a labelled peptide, TR-FRET, 1 h; inhibition, % at 20 µM; AID 602429, 2012; in the data active = inhibition above about 37%
# Target sequence (P63165 whole entry, looked up): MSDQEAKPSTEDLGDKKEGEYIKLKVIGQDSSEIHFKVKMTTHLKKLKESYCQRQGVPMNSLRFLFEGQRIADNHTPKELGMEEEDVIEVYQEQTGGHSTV
# Rpn11 inh: Rpn11 (PSMD14) deubiquitinase inhibitors, primary screen, biochemical, fluorescence polarization, uHTS | 26S proteasome non-ATPase regulatory subunit 14 (Homo sapiens), O00487 | AID 588493, 2011 | human 26S proteasome, Ub4-pepOG fluorescence polarization; 20S core pre-blocked with epoxomicin | calls only at 20 µM | actives 0.59% (n = 360,000);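 active = inhibition at 20 µM, scaled to each plate's controls, above about 33%, limit read from the data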
# CSN inh: inhibitors of CSN-mediated cullin deneddylation, primary screen, biochemical, fluorescence polarization, uHTS. Purified CSN, SCF-Nedd8-OG deneddylation. actives 0.38% (n = 360,000). COP9 signalosome complex subunit 5 (Homo sapiens), Q92905. inhibition, % at 12.5 µM. AID 651999, 2013;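 active = pattern-corrected inhibition above about 35%, with an unprinted fluorescence ratio check between 0.5 and 1.5, limit read from the data, passing the limit was not always enough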;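 note: 0% = enzyme with substrate and 100% = substrate without enzyme; some results filed as inactive read as strong as hits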
# Target sequence (Q92905 whole entry, looked up, one chain of several): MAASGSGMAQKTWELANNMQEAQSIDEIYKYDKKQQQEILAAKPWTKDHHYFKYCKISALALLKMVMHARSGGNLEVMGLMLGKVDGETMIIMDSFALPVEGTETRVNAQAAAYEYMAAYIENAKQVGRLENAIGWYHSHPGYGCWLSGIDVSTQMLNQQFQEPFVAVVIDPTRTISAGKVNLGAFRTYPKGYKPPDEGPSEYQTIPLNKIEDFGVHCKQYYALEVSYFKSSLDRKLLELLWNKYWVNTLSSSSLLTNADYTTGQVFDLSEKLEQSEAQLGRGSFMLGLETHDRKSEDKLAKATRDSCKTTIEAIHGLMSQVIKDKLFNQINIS
#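 Schedule: reaction 90 min, room temperature / Assay system: HEK293T-derived human Csn5 enzyme / Input: Csn5 at 0.24 nM final / Measure: inhibition of Csn5 cleavage, % / Control set: substrate-only high control, full reaction low control / Technique: fluorescence polarization of the substrate / Buffer or medium: Tris/NaCl/DTT buffer, pH 7.5 / Reagent: SCFSkp2-Nedd8OG substrate at 10 nM final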
# An asterisk follows results filed as active; i = inactive; / = no result given. Some of the compounds tested; the hit share may differ from the screen's.
# Second line of a record: LMPTP inh	Rpn11 inh	Neddylation inh	CSN inh	SUMO1 PPI mod	STEP inh
1. Cn1c2nc(=O)[nH]c(=O)c-2cc2ccccc21
  -0.6	i	/	0	-47	-2
2. O=C1Nc2ccccc2Nc2ccccc21
  -0.7	i	i	3	8	0
3. O=c1ccc2cccc([N+](=O)[O-])c2[nH]1
  -0.1	i	i	-1	-39	-3
4. O=C1Cc2c([nH]c3ccc(Br)cc23)-c2ccccc2N1
  1.8	i	i	16	13	-3
5. Cc1sc2ncnc(SCC(=O)N3CCN(C(=O)c4ccco4)CC3)c2c1C
  -1.1	i	i	-4	3	0
6. Cc1c(C(=O)NCCN2CCOCC2)oc2ccc(Br)cc12
  0.4	i	i	4	0	-1
7. O=C1NC[C@@H](c2ccccc2)OC(=O)[C@@H](Cc2ccc(F)cc2)CC/C=C/C[C@H]1CC(=O)N(CCO)Cc1ccccc1
  1.7	i	i	-4	0	1
8. CCNC(=O)C1CC(=O)N(CC)C(=Nc2cc(Cl)c(O)c(Cl)c2)S1 (configuration not stated)
  -15	i	i	1	0	-3
9. O=C1NC[C@H](c2ccccc2)OC(=O)[C@@H](Cc2ccc(F)cc2)CC/C=C/C[C@H]1CC(=O)N(CCO)Cc1ccccc1
  1.5	i	i	-5	3	2
10. COc1cc2c(cc1OC)C1C(=O)c3cc(OS(C)(=O)=O)c(OC)cc3C1N(C)C2=O (configuration not stated)
  -0.2	i	i	5	-4	1
11. Cc1nc(=O)c(-c2ccccc2)c(C)n1-c1ccc(O)c(C(=O)O)c1
  -1.9	i	i	1	3	0
12. COc1ccc(/C(N)=N/OC(=O)CSc2ccccc2)cc1
  1.5	i	i	1	0	2
13. CC(C)(C)n1nc(-c2ccc(Cl)cc2)c2c(N)ncnc21
  1.0	i	i	1	-2	-6
14. O=C1NC[C@H](c2ccccc2)OC(=O)[C@H](Cc2ccc(F)cc2)CC/C=C/C[C@@H]1CC(=O)N(CCO)Cc1ccccc1
  2.2	i	i	-2	3	0
15. CC1(C)[C@H](C(=O)O)N2C(=O)C[C@H]2S1(=O)=O
  -2.5	i	i	3	14	-4

# Reformatted: results already given
12) COc1ccc(/C(N)=N/OC(=O)CSc2ccccc2)cc1
13) CC(C)(C)n1nc(-c2ccc(Cl)cc2)c2c(N)ncnc21
14) O=C1NC[C@H](c2ccccc2)OC(=O)[C@H](Cc2ccc(F)cc2)CC/C=C/C[C@@H]1CC(=O)N(CCO)Cc1ccccc1
15) CC1(C)[C@H](C(=O)O)N2C(=O)C[C@H]2S1(=O)=O

Screen / compound no.,12,13,14,15
LMPTP inh,1.5,1.0,2.2,-2.5
Rpn11 inh,i,i,i,i
Neddylation inh,i,i,i,i
CSN inh,1,1,-2,3
SUMO1 PPI mod,0,-2,3,14
STEP inh,2,-6,0,-4

# Back to the main list; the two compounds before the break are reprinted first.
# Second line of a record: LMPTP inh	Rpn11 inh	Neddylation inh	CSN inh	SUMO1 PPI mod	STEP inh
14. O=C1NC[C@H](c2ccccc2)OC(=O)[C@H](Cc2ccc(F)cc2)CC/C=C/C[C@@H]1CC(=O)N(CCO)Cc1ccccc1
  2.2	i	i	-2	3	0
15. CC1(C)[C@H](C(=O)O)N2C(=O)C[C@H]2S1(=O)=O
  -2.5	i	i	3	14	-4
16. CCCCc1oc2ccccc2c1C(=O)c1cc(I)c(OCCN(CC)CC)c(I)c1
  -2.0	i	i	3	-8	9
17. O=C(O)C1=C[C@@H](O)[C@@H](O)[C@H](O)C1
  -1.8	i	i	-1	5	1
18. Cc1nc(COc2ccccc2Cl)sc1-c1ccnc(N)n1
  -2.3	i	i	3	-11	1
19. Cn1ncc(Br)c1C(=O)O
  -0.7	i	i	0	-1	-2
20. O=C(COc1ccc(Cl)cc1Cl)Nc1noc2ccccc12
  0.5	i	i	-2	1	1
21. Cc1ccc2c(CC(=O)N3CCN(S(=O)(=O)c4ccc5c(c4)OCCO5)CC3)coc2c1
  3.1	i	i	1	-5	0
22. Nc1ccn(C2CSC(CO)O2)c(=O)n1 (configuration not stated)
  -1.1	/	i	1	6	/
23. CCCC(=O)Nc1ccc(Cl)c(-c2nc3ncccc3o2)c1
  -0.5	i	i	6	3	-3
24. O=C(O)Cn1nc(C(F)(F)F)c2c1CCCCC2
  -1.5	i	i	4	3	1
25. O=C1NC[C@@H](c2ccccc2)OC(=O)[C@H](Cc2ccc(F)cc2)CC/C=C/C[C@H]1CC(=O)N(CCO)Cc1ccccc1
  1.4	i	i	1	2	2
26. CCOC(=O)Cc1csc(NC(=O)c2sc3nc4cc(C)ccc4cc3c2N)n1
  0.0	i	i	14	-6	-4
27. CC(=O)Oc1ccc(-c2cc3ccc(OC(C)=O)cc3oc2=O)cc1
  -0.6	i	/	0	-13	-3
28. O=C1NC[C@@H](c2ccccc2)OC(=O)[C@@H](Cc2ccc(F)cc2)CC/C=C/C[C@@H]1CC(=O)N(CCO)Cc1ccccc1
  1.3	i	i	-4	3	2
29. O=C(CSc1ncnc2ccccc12)NCc1ccc2c(c1)OCO2
  -0.9	i	i	2	-2	-1
30. CCOC(=O)C1=C(C)NC(C)=C(C(=O)OC)C1c1cccc(Cl)c1Cl (configuration not stated)
  3.1	i	/	0	-2	-1

# Part of the list above, reformatted:
(28) O=C1NC[C@@H](c2ccccc2)OC(=O)[C@@H](Cc2ccc(F)cc2)CC/C=C/C[C@@H]1CC(=O)N(CCO)Cc1ccccc1
(26) CCOC(=O)Cc1csc(NC(=O)c2sc3nc4cc(C)ccc4cc3c2N)n1
(30) CCOC(=O)C1=C(C)NC(C)=C(C(=O)OC)C1c1cccc(Cl)c1Cl (configuration not stated)
(21) Cc1ccc2c(CC(=O)N3CCN(S(=O)(=O)c4ccc5c(c4)OCCO5)CC3)coc2c1

assay / compound	28	26	30	21
LMPTP inh	1.3	0.0	3.1	3.1
Rpn11 inh	i	i	i	i
Neddylation inh	i	i	/	i
CSN inh	-4	14	0	1
SUMO1 PPI mod	3	-6	-2	-5
STEP inh	2	-4	-1	0
